# Source: PubChem
# PINK1 expr mod: PINK1 expression modulation. PINK1 immunofluorescence, high-content cytometry, 24 h. Potency, µM (doses to about 76.6 µM), inactives show at the highest dose activation (PINK1 increase), most hits filed as activators. hit rate 0.2% among 410,000; active = well fitted activation curve with a large enough effect; inconclusive = small, poorly fitted or top-dose-only effect; inactive = flat fitted curve, though single readings scatter; cell line not stated here;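 note: potency is the fitted concentration of half-maximal effect; % of control where 0% means no effect; nearly all actives have a fitted effect of over 65% in size; a mitochondrial uncoupler was the plate control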
#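 Measures PINK1 amount and localization on or inside mitochondria by immunofluorescence. Stable cells get compounds at 5 concentrations for 24 hours before fixation and staining; CCCP controls included.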
# Menin MLL FP FL: inhibitors of human menin-MLL interaction, wild-type MLL peptide. Fluorescence polarization, fluorescein-MLL peptide displacement from menin. FP activity change, % at 61.4 µM. AID 1766. 290,000 tested, under 10 active; inconclusive = falling polarisation curve, or a change in total fluorescence; inactive = total fluorescence flat and polarisation flat or rising; no compound was filed as active; the % refers to the polarisation; negative = inhibition;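 note: % of control where 0% means no effect; inhibitors lower the polarisation; unlabelled MLL peptide was the positive control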
# ClpP mod: qHTS Assay for Activators of ClpP. AID 651965, 2013. purified B. subtilis ClpP, FRET peptide cleavage, 20 min. hit rate 1.9% among 340,000. Potency, µM (highest dose often 57.5 µM), for inactives: at the top dose activity change, negative = active; active = well fitted falling curve with a large enough effect; inconclusive = small, poorly fitted or top-dose-only effect; inactive = no such curve, though single readings can be large or run the other way; note: potency is the fitted concentration of half-maximal effect; the source files actives as falling curves though it sought activators and does not explain the sign; nearly all actives have a fitted effect of over 65% in size; many hits overshoot -100%
# Target sequence (P80244 whole entry, looked up): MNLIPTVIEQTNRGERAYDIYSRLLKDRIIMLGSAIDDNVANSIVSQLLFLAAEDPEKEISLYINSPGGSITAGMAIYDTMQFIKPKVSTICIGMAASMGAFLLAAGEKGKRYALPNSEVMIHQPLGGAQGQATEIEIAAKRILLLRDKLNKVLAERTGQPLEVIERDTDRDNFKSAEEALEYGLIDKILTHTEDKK
#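 FRET quenching reversal measured ClpP activation: 10 microg/mL B. subtilis ClpP at pH 8 with the FRET-FV decapeptide, read at 430 nm after 320 nm excitation. The 20-min minus 0-min signal was scaled between DMSO/no-enzyme wells and ADEP (5.8 microM final).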
# TRPV1 PAM: potentiators of human vanilloid receptor 1 (TRPV1). Q8NER1. TRPV1-expressing cells, Fluo-8 calcium influx, capsaicin EC20 potentiation; host cell line not named in the record; control for the full effect not named in the record. potentiation, % at 8.33 µM. hit rate 0.02% among 320,000. AID 540277; active means potentiation above 80%; inconclusive means 30% to 80%; inactive means below 30%; note: 0% is about no effect
#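 Cells expressing TRPV1 were dye-loaded with Fluo-8 and read kinetically: 10 s baseline, 3 min after compound (agonist portion), then 2 min after EC20 capsaicin (allosteric enhancer portion). Calcium-bound dye fluorescence at 480/520 nm.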
# TRPML1 inh: inhibitors of human TRPML1 channel; TRPML1-inducible cells, Ca2+ dye fluorescence, FDSS; active compounds read low; inhibition of EC80 agonist-evoked calcium signal; activity change, negative = inhibition, % (concentration not given with the values); hit rate 0.02% among 390,000; in the data active means activity change below about -50%; inconclusive means about -30% to -50%; inactive means above about -30%;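 note: stimulus is agonist 54-4 at its EC80 concentration; % is set by controls: 0 for no effect and ±100 for the full control effect; the text of the record puts the active cut at -80%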
# Target sequence (Q9GZU1 whole entry, looked up): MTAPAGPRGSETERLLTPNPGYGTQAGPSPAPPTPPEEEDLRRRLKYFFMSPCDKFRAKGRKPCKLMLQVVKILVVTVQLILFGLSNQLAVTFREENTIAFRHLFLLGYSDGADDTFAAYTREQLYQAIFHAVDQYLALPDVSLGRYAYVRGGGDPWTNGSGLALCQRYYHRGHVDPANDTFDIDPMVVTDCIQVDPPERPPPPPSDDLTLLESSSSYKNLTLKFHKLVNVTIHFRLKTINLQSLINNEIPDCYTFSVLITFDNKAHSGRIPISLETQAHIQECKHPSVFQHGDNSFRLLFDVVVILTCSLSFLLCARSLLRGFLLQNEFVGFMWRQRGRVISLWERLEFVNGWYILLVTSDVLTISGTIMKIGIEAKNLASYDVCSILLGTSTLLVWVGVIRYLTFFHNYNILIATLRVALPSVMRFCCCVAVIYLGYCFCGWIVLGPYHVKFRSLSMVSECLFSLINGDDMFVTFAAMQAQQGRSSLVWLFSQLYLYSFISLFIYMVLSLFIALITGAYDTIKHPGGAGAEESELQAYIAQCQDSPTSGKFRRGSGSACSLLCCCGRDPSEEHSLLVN
#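 Calcium fluorescence in TRPML1-DL cells induced overnight with Tet: a 110 s read after compound pin addition, then a 110 s antagonist read after challenge with 54-4 at 4 uM final (EC80).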
# Sfp PPTase inh: inhibitors of Bacillus subtilis Sfp phosphopantetheinyl transferase; AID 1490; Potency, µM, without a hit: max response, negative = inhibition, usual class: inhibitors; Q9F4F7; hit rate 3.5% among 310,000; Biochemical Sfp PPTase activity, qHTS; active = well fitted inhibition curve with a large enough effect; inconclusive = small, poorly fitted or top-dose-only effect, or another doubt; inactive = no such curve, though single readings can be large or run the other way;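 note: the enzyme is Sfp with the accession as filed and its product quenches rhodamine fluorescence; potency is the fitted concentration of half-maximal effect; 0% = enzyme reaction without inhibitor and -100% = no enzyme wells; top concentration of the series not given in the record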
#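 Buffer: 50 mM Hepes-Na pH 7.6, 10 mM MgCl2, 0.01% Nonidet P-40, 0.01% BSA. Enzyme 15 nM, pre-exposed to compound 15 min; substrates then added and fluorescence change tracked over 30 min.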
# TRPML1 ag: agonists of human TRPML1 channel; Q9GZU1; TRPML1-expressing cells, Ca2+ dye fluorescence, FDSS; host cell line not named in the record; reference of the full effect not given here; activation, % (no concentration beside the values); hit rate 0.12% among 410,000; AID 624414; in the data active = activation above about 50%; inconclusive = about 30% to 50%; inactive = below about 30%; note: 0% is about no effect; the text of the record puts the active cut at 80%
#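 Tetracycline-induced TRPML1-DL cells are seeded and incubated overnight before loading with a no-wash Ca2+ dye and quencher. Agonist activity is taken from the 110 s fluorescence read following compound pin-transfer on an FDSS, before EC80 54-4 challenge.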
# Active calls of the source: *; ? = inconclusive; . = not tested or not shown; & = joins results of further samples; [ ] = remark or other dose.
# Below each compound – PINK1 expr mod	Menin MLL FP FL	ClpP mod	TRPV1 PAM	TRPML1 inh	Sfp PPTase inh	TRPML1 ag
C(=N\n1cnnc1)/c1ccccn1
  8.8%[38.3 µM]	-2.3	0.2%	4	23	22%	0.2
CN(Cc1ccccn1)C(=O)C1CCC(=O)N(Cc2cccc(F)c2)C1 (configuration not stated)
  -1.6%	.	0.1%	-2	-12	8%	0.7
O=C1CN(C(=O)/C=C/c2cccc(Cl)c2)c2ccccc2N1
  -0.1%	1.1	.	3	14	1%	2.3
O=C(Nc1ccccn1)C(c1ccccc1)c1ccccc1
  2.1%	.	-0.2%	.	-22	.	-0.1
O=C(c1ccco1)N1CCN(C(=O)c2cnn(-c3ccc(Cl)cc3)c2C2CCNCC2)CC1
  -0.4%	-4.9	.	-2	-6	1%	-0.3
CC(C)c1ccc(NC(=O)COC(=O)c2c[nH]c(=O)[nH]c2=O)cc1
  -1.1%	-0.5	-11%	1	7	0%	-0.6
O=C(NCCc1ccc(F)cc1)C1CCCO1 (configuration not stated)
  -0.5%	1.4	.	4	3	29%	0.2
CCOc1ccccc1CNC(=O)c1ccc(Sc2ccc(Cl)cc2)c(NC(C)=O)c1
  0.4%	1.8	-4.9%	4	16	-3%	2.5
Cc1ccc(/C([O-])=C(/C(=S)NCc2ccco2)[n+]2ccccc2)cc1[N+](=O)[O-]
  0.9%	0.5	.	-5	-9	25µM*	-0.5
CCn1c(SCC(=O)N2CCC(C)CC2)nnc1-c1ccco1
  0.2%	1.2	.	-6	-1	18%	-0.3
COC1OC2COC(c3ccccc3)OC2C(NC(C)=O)C1OC(C)=O (configuration not stated)
  0.6%	.	-0.3%	.	-6	.	-0.2
O=C(Cc1cn2ccsc2n1)Nc1nc2c(s1)CCCC2
  0.9%	1.1	1.1%	?	5	-1%	-0.2
N#CCSc1ccc(-c2nc3ccccc3[nH]2)cn1
  0.4%	1.4	.	-15	-18	19%	1.3
Clc1cc(Cl)cc(Nc2ccccc2CN(C/C=C/c2ccc3c(c2)OCO3)Cc2ccccc2)c1
  2.0%	.	0.4%	.	-18	.	-0.5
COc1cc(/C=C(/NC(=O)c2ccccc2)C(=O)N2CCOCC2)c([N+](=O)[O-])cc1OC
  -3.6%	-0.8	-1.7%	6	1	-3%	0.0
COc1ccc(S(=O)(=O)CCc2nnc(NC(=O)c3cccs3)s2)cc1
  2.3%[38.3 µM]	3.1	-1.5%	5	37	-1%	0.1
c1ccc(Nc2cccc3ccccc23)cc1
  16%	.	3.8%	.	-4	.	0.8
CCc1c(C)sc(NC(=O)c2cc(-c3cc(OC)ccc3OC)on2)c1C#N
  8.5%[38.3 µM]	?	-8.6%	-11	-2	23%	-0.7
Cc1ccc(C)c(N2CCN(CCCNC(=O)Cn3cc4c(n3)CCCCC4)CC2)c1
  -0.6%	0.2	-0.8%	-27	-11	-29%	0.5
COc1ccc2[nH]c(C)c(C(=O)CN3CCOCC3)c2c1
  -2.0%	-0.1	-2.9%	1	-28	?	0.2
CC(=O)Oc1ccc2cc(-c3ccccc3)c(=O)oc2c1
  -1.0%	3.9	-0.6%	9	3	10%	-1.1
CCn1c(=O)c2c(nc(SCc3ccccn3)n2C)n(C)c1=O
  -2.2%	-1.3	-20%	10	-4	-2%	-0.9
CCn1c2ccccc2c2cc(NC(=O)COc3cc(C)ccc3C)ccc21
  6.9%	.	-2.6%	.	9	.	0.8
O=C(Nc1ccccc1)C1=C[C@@H](C2CC2)C[C@@H](OCc2ccc(CO)cc2)O1
  -0.7%	-1.3	-1.1%	13	-13	-17%	1.2
CCC(Cc1ccccc1)NC(=O)CSc1ccsc1[N+](=O)[O-] (configuration not stated)
  -3.9%	1.9	2.0%	1	13	15%	3.1
CCCCN1CC(N2CCN(C(=O)c3ccco3)CC2)CS1(=O)=O (configuration not stated)
  0.9%	.	-0.3%	.	.	.	0.0
COc1ccc(OC)c(NC(=O)c2cc(-c3ccc(F)cc3OC(C)C)n[nH]2)c1
  1.1%	.	5.0%	.	.	.	-0.6
CCOCCn1c(SC(C)C(C)=O)nc2c1c(=O)[nH]c(=O)n2C (configuration not stated)
  2.4%	1.9	-2.5%	7	6	19%	-0.7
CC(NC(=O)Cc1ccsc1)c1ccc(Cl)cc1Cl (configuration not stated)
  1.1%	-9.3	.	-16	1	17%	2.2
O=S(=O)(Nc1ccon1)c1cc(Cl)ccc1Cl
  -0.1%	.	0.2%	12	5	21%	-0.8
CCOC(=O)Cc1csc(NC(=O)Cc2ccccc2[N+](=O)[O-])n1
  -0.7%	-5.7	.	6	18	10%	0.1
OC1(c2ccccn2)COc2ccccc2O1 (configuration not stated)
  0.8%	-1.4	.	22	16	?	1.7
Cc1c(C(=O)NCCCc2ccccc2)cccc1[N+](=O)[O-]
  -3.1%	4.3	2.1%	20	-3	0%	0.0
O=C(c1cc(C(F)(F)F)cc(C(F)(F)F)c1)N1CCC2(CCCN(c3ccncc3)C2)CC1
  -0.8%	-0.8	.	.	.	8%	.
CC1CCc2c(sc(NC(=O)Cn3nnc(-c4ccc(C(F)(F)F)cc4)n3)c2C#N)C1 (configuration not stated)
  1.2%	.	1.2%	.	-15	.	1.4
Cc1cc(Br)cn2c(Cc3cccc(F)c3)c(C3CCCCC3)nc12
  ?	.	-1.4%	.	.	.	-0.7
FC(F)(F)Oc1ccc(Nc2nc(N3CCOCC3)nc(N3CCOCC3)n2)cc1
  1.5%	.	-1.4%	-14	26	-1%	1.9
CCOc1ccc(CNCCCSc2ncccn2)cc1OC
  1.9%	-2.8	0.1%	2	.	4%	.
O=C(CCNS(=O)(=O)c1ccc(OC(F)(F)F)cc1)Nc1cccc(S(=O)(=O)N2CCCC2)c1
  0.4%	.	1.2%	.	3	.	-0.3
O=C(c1nn(Cc2ccccc2)c(=O)c2ccccc12)N1CCc2ccccc2C1
  -3.2%	2.8	-2.2%	4	-3	-9%	0.2
NC(=O)C1CCCN(C(=S)Nc2ccccc2)C1 (configuration not stated)
  -1.5%	2.8	0.8%	3	-16	0%	-0.2
Cc1ccc(SCC(=O)N2CCc3ccccc32)cc1
  2.2%	3.0	-1.5%	10	-1	-12%	1.5
COc1ccc(CCNc2nnc(C)c(=O)[nH]2)cc1OC
  1.0%[38.3 µM]	1.8	0.4%	-6	0	17%	0.5
O=C1COc2ccccc2N1Cc1c(F)cccc1Cl
  0.4%	8.1	1.9%	-12	-7	12%	2.9
CCC(C)NC(=O)C1CCN(S(=O)(=O)c2cc([N+](=O)[O-])ccc2Cl)CC1 (configuration not stated)
  -1.5%	-0.3	0.2%	13	8	9%	-0.9
Cc1ccc(C(=O)NNC(=O)c2ccc(S(=O)(=O)N3CCCCC3)cc2)cc1
  2.1%	.	-3.7%	.	-9	.	-0.1
N#CCCN1CCN(S(=O)(=O)c2ccc(C3CCCCC3)cc2)CC1
  0.5%	.	-0.5%	5	9	.	0.3
COc1ccc(-c2noc(CCC(=O)N3CCN(c4cccc(Cl)c4)CC3)n2)cc1
  0.0%	.	-1.5%	.	-2	.	0.2
Cc1ccc(C2(C)NC(=O)N(CC(=O)N3CCc4ccccc43)C2=O)cc1 (configuration not stated)
  3.3%	.	-21%	.	23	.	8.5
COc1ccc(N2CCN(C(c3cccs3)c3nnnn3C3CCCC3)CC2)cc1 (configuration not stated)
  0.8%[38.3 µM]	-2.7	0.3%	1	8	12%	11
CCC(C)NC(=O)c1cn(CC)c2ccc(S(=O)(=O)N3CCCCC3)cc2c1=O (configuration not stated)
  2.4%&3.5%	0.9	-0.1%	-12	4&-4	22%	-0.3&-0.5
O=C(c1nc(-c2ccccc2)n(-c2ccccc2)n1)N1CCCCCC1
  -2.1%	-0.8	-0.3%	-15	24	6%	-0.3
CCOc1ccc(S(=O)(=O)N2CCC(C(=O)N3CCN(C)CC3)CC2)cc1Cl
  -0.9%	-1.9	.	13	6	5%	-0.8
Cc1ccc(/C=C/C(=O)Nc2nc3ccccc3[nH]2)cc1
  7.4%	3.5	-1.0%	?	-5	-7%	-0.5
CCc1nc(OCCN(C)C)c2oc3ccccc3c2n1
  -0.7%	7.6	-2.6%	-14	-9	1%	-0.4
O=C(CCN1CCCCCC1)Nc1ccc(F)cc1
  -0.1%[38.3 µM]	-0.8	-1.5%	1	-16	-10%	2.1
CC(C)C(=O)NC(=S)Nc1ccccc1N1CCN(C(=O)c2ccc(Cl)cc2)CC1
  1.4%	0.2	.	-6	3	14%	3.9
O=[N+]([O-])c1ccc2nn(Cc3ccccc3)cc2c1
  1.2%	-0.4	-0.5%	-11	12	-6%	2.3
CCCCN(C(=O)C1CC(=O)N(c2ccc(CC)cc2)C1)c1c(N)n(CCC)c(=O)[nH]c1=O (configuration not stated)
  1.5%	.	-20%	-2	-1	.	-0.3
COc1ccc(/C=C2/NC(=O)N(Cc3ccccc3F)C2=O)cc1OC
  4.0%	-1.6	10.0%	10	-12	14%	1.6

# Next section
# Below each compound – PINK1 expr mod	Menin MLL FP FL	ClpP mod	TRPV1 PAM	TRPML1 inh	Sfp PPTase inh	TRPML1 ag
Cc1ccc2c(CN3CCC(C)CC3)cc(=O)oc2c1
  3.5%[38.3 µM]	-0.5	-2.8%	-10	-10	-5%	0.0
CSc1cccc(NC(=O)c2cc(S(=O)(=O)N3CCc4ccccc43)cn2C)c1
  -0.8%	3.1	?	-13	-6	11%	0.9
CC(C)Cc1nnc(NS(C)(=O)=O)s1
  1.3%	1.4	0.5%	-4	8	0%	-0.8
O=S(=O)(NCC(c1ccco1)N1CCN(c2ccc(F)cc2)CC1)c1ccc(F)cc1 (configuration not stated)
  8.7%	-0.2	0.7%	-3	-9	-11%	1.7
Cc1ccc(-n2nc(C(=O)N3CCN(c4ccccc4)CC3)c(=O)n(C)c2=O)cc1
  0.7%	.	1.5%	.	11	.	-0.5
C=CCNC(=O)Cn1nc(-c2ccccc2)ccc1=O
  -3.7%[38.3 µM]	-0.8	-8.8%	7	-7	0%	-0.1
Cc1cc(SCc2cccc([N+](=O)[O-])c2)nc(=O)[nH]1
  1.5%	.	0.8%	5	55	5%	0.7
